Screening data from PubChem.
MT1-MMP act inh = MT1-MMP (human) activation inhibition | P50281 | HT1080 RFP-PRO-GFP cells, GFP/RFP ratio fluorescence, overnight; percent of plate control window, DMSO zero | GFP/RFP ratio change, % at 20 µM | 360,000 tested, 0.061% active;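 active means GFP/RFP ratio change of at least 30% with cell ATP level not reduced by more than half and red fluorescence within 50% of control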; further: strong numbers were not always called active
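Assay system: HT1080 RFP-PRO-GFP cells | Dosing: 20 µM single dose, 1% DMSO | Incubation: Cells overnight before dosing, compound overnight, 37 °C, 5% CO2 | Evaluation: GFP/RFP fluorescence ratio | Control set: DMSO-only wells and HT1080 RFP-L50D-GFP cell wells as references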
UUG fidelity = yeast start codon fidelity modulation; S. cerevisiae UUG-firefly luciferase reporter, luminescence/redox ratio; activity score, % at 18.7 µM; 350,000 tested, 0.13% active; AID 602363;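 active means replicate mean at a twofold rise or more, about +100% in these data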;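 further: firefly luciferase made from a UUG start codon reports start codon fidelity; reporter light over untreated wells divided by growth signal over untreated wells; some hits fall short of that in this replicate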
Env fusion inh = inhibitors of HIV Env-mediated cell fusion. HeLa-JRFL Env/CEM21 cell fusion, luciferase. inhibition, % at 12.3 µM. 360,000 tested, 1.1% active. AID 651610;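 active means mean replicate inhibition score of at least 50 and every replicate individually at or above 50; inconclusive means only one of the two criteria met; inactive means mean below 50 and not all replicates reaching 50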;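 further: 0% = plate neutral controls and 100% = maraviroc near 300 nM; one replicate is shown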
eIF4H FP inh = inhibitors of RNA binding by human eIF4H | eIF4H fluorescence polarization binding assay | inhibition, % at 35 µM | AID 2012 | 290,000 tested, 0.94% active | Q15056;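 active means 50% or more with normal probe brightness, or confirmed in later tests; inconclusive means above 50% with abnormal brightness, or retests that disagree; inactive means below 50% or failed in later tests; about a fifth of its hits are not listed in these tables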;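 further: calls also rest on retests at 20 µM and on dose response follow-up; 0% = protein and probe with vehicle and 100% = probe without protein; strong numbers were not always called active; many hits fall short of the cut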
CSC inhib = cancer stem cell inhibition; cancer stem cell-like cells viability, luminescence; inhibition, % at 7.5 µM; 300,000 tested, 1.1% active; AID 2717;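 active means mean at 75% or more and at least half the replicates too; inconclusive means mean and replicates disagree; tested in HMLE shEcad cells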;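 further: 0% = median of negative and 100% = median of positive control wells; the first replicate is given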
PABP polyA inh = blocks human PABP binding to poly(A) RNA; P11940; fluorescence polarization; inhibition, % at 35 µM; 290,000 tested, 1% active; AID 2014;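 active means 50% or more with normal probe brightness, or confirmed in later tests; inconclusive means above 50% with abnormal brightness, or retests that disagree; inactive means below 50% or failed in later tests; about a fifth of its hits are not listed in these tables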;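 further: calls also rest on retests at 20 µM and on dose response follow-up; controls were probe without protein and protein plus probe with vehicle; some compounds called inactive have numbers as strong as hits; many hits fall short of the cut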
Rce1 inhib = inhibitors of yeast Ras-converting enzyme. Q03530. yeast membranes, quenched prenylated peptide cleavage fluorescence. calls only. 290,000 tested, 0.27% active;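 active means fall in fluorescence gain of 50% or more versus controls, with final raw signal at or below 3038400; inconclusive means same 50% fall but final raw signal above 3038400; inactive means fall in fluorescence gain under 50%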;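 further: plate controls were neutral control wells for no effect and wells lacking membranes for full effect; tested at 10 µM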
Target sequence (Q03530 whole entry, looked up): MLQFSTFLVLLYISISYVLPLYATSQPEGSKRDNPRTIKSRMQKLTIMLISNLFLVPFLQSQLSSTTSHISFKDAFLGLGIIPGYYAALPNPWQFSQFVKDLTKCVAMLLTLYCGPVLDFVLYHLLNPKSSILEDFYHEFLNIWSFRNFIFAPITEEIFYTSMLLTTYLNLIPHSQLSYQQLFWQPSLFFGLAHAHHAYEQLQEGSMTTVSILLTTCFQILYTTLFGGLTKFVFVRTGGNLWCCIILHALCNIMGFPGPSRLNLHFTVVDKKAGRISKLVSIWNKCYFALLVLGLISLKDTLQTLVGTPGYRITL
MT1-MMP act inh RFP = recorded beside MT1-MMP act inh, whose call it bears; RFP signal change, %; measured here: RFP expression control read;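 0 = vehicle wells; hits needed this value within 50% of zero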
* = called active by the depositor; i = inactive; ? = inconclusive; . = no result given.

SMILES	MT1-MMP act inh	MT1-MMP act inh RFP	UUG fidelity	Env fusion inh	eIF4H FP inh	CSC inhib	PABP polyA inh	Rce1 inhib
CC1CN(C(=O)c2ccc(S(=O)(=O)Nc3ccccc3Cl)cc2)CC(C)O1 (stereo unspecified)	-4	0	12	-14	-7	1	4	i
CSc1ccc(CNC(=O)C2(C)CCCN(C(C)=O)C2)cc1 (stereo unspecified)	-1	2	-13	7	.	.	.	.
O=C(c1ccc(NS(=O)(=O)c2ccc3[nH]c(=O)[nH]c3c2)cc1)N1CCCCC1	3	2	-14	-34	.	.	.	i
O=C(CC(=O)Nc1cccnc1)Nc1cccnc1	9	6	-14	23	-2	1	-12	i
CC(C)CNC(=O)COC(=O)CCC(=O)c1ccc(F)cc1	7	6	-2	-4	-2	-5	4	i
N#Cc1c(Nc2ccccc2)s[nH]c1=O	-4	3	.	6	-5	1	-1	i
O=C(Nc1ccc(S(=O)(=O)Nc2cnc3ccccc3n2)cc1)c1ccc(Br)o1	-2	3	-11	-30	2	-4	3	i
COc1cc(C2NC(=S)NC3=C2CCc2ccccc23)cc(OC)c1OC (stereo unspecified)	4	-1	-14	.	-4	-10	-5	i
Fc1ccc(Oc2cnc3ccccc3n2)cc1	-8	-3	-20	15	8	-17	4	i
O=C(CSc1nnc(CNC(=O)c2c(F)cccc2F)o1)NCCc1ccccc1	-1	1	-18	6	-2	-3	6	i
CCOC(=O)C(=CNc1ccc(Oc2cncc(Cl)c2)nc1)C(=O)OCC	5	-2	.	11	-6	-4	0	i
Cn1c(CCCNC(=O)c2cccs2)nc2ccccc21	0	10	-2	.	-9	-10	0	i
Cc1ccc(C(=O)NCCCc2ccccc2)s1	3	0	-3	-11	-7	-2	22	i
Cc1nnsc1C(=O)N/N=C/c1c(F)cccc1Cl	5	3	.	-25	1	1	-7	i
CCN(C(=O)c1ccc2c(OC)n(CC)nc2c1)c1ccc(OC)cc1	-1	0	-8	4	-3	16	1	i
C=C(C)CSc1nnc([C@@H]2CCCN2C(=O)OC(C)(C)C)o1	1	3	0	18	-6	-5	4	i
O=C1CN(c2ccccc2)C(=S)N1C(=O)c1ccc(Br)cc1	-1	-4	-15	-241	-8	-7	-6	i
CC(C)(C)NC(=O)c1cnn2c1NC(c1ccc(F)cc1)CC2C(F)(F)F (stereo unspecified)	1	-2	-1	.	6	-6	-6	i
CCOc1nc(NCCO)nc(Nc2cc(Cl)ccc2OC)n1	2	2	.	24	8	-12	-3	i
COc1ccc(C)cc1NC(=O)C1CCN(C(=O)c2ccco2)CC1	4	1	6	10	7	-33	4	i
O=Cc1cnc(N2CCCCC2)s1	3	9	.	0	1	5	3	i
O=C1/C(=C/c2ccncc2)SC(=S)N1N1CCOCC1	-1	0	-20	-37	-2	41	8	i
O=C(NCC(=O)N(c1cccnc1)C(C(=O)NC1CCCC1)c1cccs1)c1ccco1 (stereo unspecified)	1	2	.	8	-3	20	12	i
CC(=O)n1c(-c2ccccc2)c(-c2ccccc2)n(C)c1=O	2	2	.	7	.	-18	.	i
COc1ccc(NC(=O)CCNS(=O)(=O)c2cc(Br)cnc2N)cc1OC	3	-1	-3	15	-4	-18	9	i

New compounds follow
SMILES	MT1-MMP act inh	MT1-MMP act inh RFP	UUG fidelity	Env fusion inh	eIF4H FP inh	CSC inhib	PABP polyA inh	Rce1 inhib
Cc1c(NC(=O)[C@@H](NC(=O)c2ccc(Cl)c([N+](=O)[O-])c2)C(C)C)c(=O)n(-c2ccccc2)n1C	-2	0	.	-2	.	-14	.	.
COc1ccc(NC(=O)CSc2ccc(-c3cccnc3)nn2)c(OC)c1	4	1	-19	3	-9	-20	3	i
O=S(=O)(c1ccc(NC(=S)N2CCN(c3ccccc3F)CC2)cc1)N1CCOCC1	2	-15	.	59*	-9	18	-15	i
CCOC(=O)COc1nc(-c2ccccc2)cc(-c2ccco2)c1C#N	1	-4	.	22	10	1	-7	i
COc1ccc(CCNC(=O)CC(NC(=O)c2ccccc2Cl)c2ccccc2)cc1 (stereo unspecified)	-2	0	-18	.	-2	-4	-3	i
CCCCOc1ccc(C(=O)Oc2cccnc2)cc1	4	2	.	17	-2	1	-7	i
Cc1cc(F)c(F)c(C(=O)N2CCOCC2)c1Cl	-3	2	-10	7	3	-5	-3	i
CCc1nc(Nc2cccc(O)c2)c2oc3ccccc3c2n1	-2	-8	-17	.	12	17	26	i
CCc1ccccc1NNC(=O)CCc1ccccc1	4	4	.	6	2	-2	16	.
Cc1ccccc1C(=O)NC1CCN(C(=O)Nc2ccc(F)cc2)CC1	1	4	-11	2	-6	-1	6	i
CNC(=S)NNc1nc(C)cc(C)n1	-2	-3	-24	-91	3	-1	-3	i
Cc1nnc(SCC(=O)NC2CCCCCC2)n1N	0	0	-1	1	.	-10	.	.
CCC(=O)NCCc1nc2ccccc2n1Cc1ccc(C)cc1	3	9	-19	2	2	-9	4	i
O=C(C1CC1)N1CCc2cc(Br)cc(S(=O)(=O)NCCCN3CCCCC3)c21	2	2	-11	-10	39	-1	11	i
COc1ccccc1N(CC(=O)NCCSCc1cccc(C)c1)S(=O)(=O)c1ccccc1	-3	-17	-4	-8	-9	-2	-9	.
Cc1csc2nc(O)c(C(=O)NCCN3CCOCC3)c(=O)n12	2	5	-8	-2	.	-5	.	i
Cc1ccc(Sc2c(C)nn(C(=O)c3cccc(S(=O)(=O)N4CCOCC4)c3)c2C)cc1	10	56	-23	-33	0	-4	3	i
O=C(O)c1cc(-c2cc(C(=O)O)c3ccccc3n2)nc2ccccc12	.	.	.	.	-3	-19	-4	i
O=C(CC1C(=O)NCCN1Cc1c(F)cccc1Cl)NCCCOc1cccnc1 (stereo unspecified)	0	1	-17	3	-11	-13	8	i
O=C(NC12CC3CC(CC(C3)C1)C2)c1ccc(=O)oc1	1	-1	-15	.	-2	-10	3	i
Cc1cccc(NC(=O)COc2ccc(Br)cc2C)n1	-3	-10	-17	.	-4	-3	7	i
Nc1nccc(-c2cccs2)n1	1	5	.	-2	4	-18	-9	i
O=C(NC1CC2CCCC(C1)N2Cc1ccccc1)c1ccc([N+](=O)[O-])cc1 (stereo unspecified)	0	-1	0	5	-6	-11	8	i
OC(c1ccc(Cl)c(F)c1)c1ncc(-c2ccccc2Cl)[nH]1 (stereo unspecified)	0	-4	-26	14	.	.	.	.
O=C(COc1ccccc1)Nc1ccncc1Cl	1	-3	-5	-16	-5	-3	1	i

Three of the compounds above, with each value named.
CCC(=O)NCCc1nc2ccccc2n1Cc1ccc(C)cc1
- MT1-MMP act inh = 3
- MT1-MMP act inh RFP = 9
- UUG fidelity = -19
- Env fusion inh = 2
- eIF4H FP inh = 2
- CSC inhib = -9
- PABP polyA inh = 4
- Rce1 inhib = i
O=C(C1CC1)N1CCc2cc(Br)cc(S(=O)(=O)NCCCN3CCCCC3)c21
- MT1-MMP act inh = 2
- MT1-MMP act inh RFP = 2
- UUG fidelity = -11
- Env fusion inh = -10
- eIF4H FP inh = 39
- CSC inhib = -1
- PABP polyA inh = 11
- Rce1 inhib = i
COc1ccccc1N(CC(=O)NCCSCc1cccc(C)c1)S(=O)(=O)c1ccccc1
- MT1-MMP act inh = -3
- MT1-MMP act inh RFP = -17
- UUG fidelity = -4
- Env fusion inh = -8
- eIF4H FP inh = -9
- CSC inhib = -2
- PABP polyA inh = -9
- Rce1 inhib = .

Following part
SMILES	MT1-MMP act inh	MT1-MMP act inh RFP	UUG fidelity	Env fusion inh	eIF4H FP inh	CSC inhib	PABP polyA inh	Rce1 inhib
Cc1cccn2c(=O)c3cc(C(=O)N(C)C)n(C)c3nc12	6	4	-9	-26	?	-4	?	i
COC(=O)[C@@]1(C)[C@H]2C(=O)N(Cc3ccccc3)C(=O)[C@H]2[C@H]2CN=C(SCc3ccc(C)cc3)N21	3	-1	1	65*	.	.	.	.
O=C(CCl)N1CCN(S(=O)(=O)c2ccc3ccccc3c2)CC1	1	2	4	2	14	18	7	i
CC(=O)c1ccc(OCCCC(=O)NCCc2ccc(C(F)(F)F)cc2)cc1	0	-8	-4	-4	4	1	11	i
COc1cc(/C=C2\C(=O)ON=C2c2ccccc2)cc(OC)c1OC	2	0	-18	.	-5	-5	-1	i
O=S(=O)(Nc1ccc(-c2ccccc2)cc1)c1ccccc1	3	0	-17	10	.	.	.	.
Cc1cc(C)cc(NC(=O)Nc2cc(-c3ccccc3)nn2C)c1	3	-1	.	8	-9	-13	-14	i
Cc1ccccc1OCCC(=O)OCC(=O)Nc1c(C)nn(-c2ccccc2)c1C	0	6	-5	21	.	8	.	i
COCCN1Cc2cccc(C(=O)NCc3ccccc3OC)c2C1=O	3	7	-4	.	-2	-7	-12	i
Cc1ccnc(N2CCC(C(=O)NC3CCCCCC3)CC2)n1	3	6	-9	-6	8	1	12	i
COc1cc(C(=O)NCC(c2ccco2)N(C)C)cc(OC)c1OC (stereo unspecified)	-1	3	.	-9	-1	-4	1	i
COc1ccccc1NC(=O)CCNS(=O)(=O)c1ccc2[nH]c(=O)oc2c1	-4	-1	-13	3	42	1	27	i
CN(C(=O)c1cccc(NC(=O)Cc2ccc(NC(=O)C3CCN(C(=O)C4CCCCC4)CC3)cc2)c1)C1CC1	-2	1	2	-17	.	.	.	.
O=C(CCC1CCCN(C(=O)c2ccc3cc[nH]c3c2)C1)N1CCN(c2ccccn2)CC1 (stereo unspecified)	-1	-7	4	10	-3	-14	-8	i
CC(C)n1cnc2c(NCc3ccccc3)nc(NCc3ccccc3)nc21	-6	-3	-10	2	-5	12	-3	i
CCCC1CC(CSC(=N)N)OC1=O (stereo unspecified)	5	8	-6	.	-2	3	1	i
CCOC(=O)C1CCCN(C(=O)c2cc(-c3ccccc3)nc3ccccc23)C1 (stereo unspecified)	-3	3	.	25	-1	3	-8	i
O=C(/C=C\c1ccco1)NC(=S)Nc1ccccc1O	-1	4	.	-4	43	8	10	i
CN(Cc1ccccc1N1CCCC1)C(=O)c1cc2ccccc2o1	-1	-6	-13	-12	.	-14	.	.
COc1cc(SC)ccc1C(=O)NCCOc1ccc(C)c(C)c1	-6	9	-5	.	-6	.	-4	i
O=C(NCc1ccc(Cl)cc1)C1CCN(S(=O)(=O)c2cccs2)CC1	3	0	-11	-1	4	1	9	i
N=c1c(C(=O)NCc2ccco2)cc2c(=O)n3ccccc3nc2n1Cc1ccccc1	0	4	1	.	77*	2	69*	i
Cc1c(C(=O)O)oc2ccc(S(=O)(=O)NC3CCCCCCC3)cc12	1	5	0	.	9	6	4	i
COc1cccc(/C=N/NC(=O)Cn2cnc3c2c(=O)n(C)c(=O)n3C)c1	5	3	-5	8	2	-1	-6	i
NC(=O)Nc1ccc(C(=O)OCC(=O)N2CCCC2=O)cc1	1	1	-20	17	.	.	.	.

Next compounds:
SMILES	MT1-MMP act inh	MT1-MMP act inh RFP	UUG fidelity	Env fusion inh	eIF4H FP inh	CSC inhib	PABP polyA inh	Rce1 inhib
CC(=O)c1cccc(NC(=O)CSc2nnc(C(C)N(C)C)n2Cc2ccccc2)c1 (stereo unspecified)	-2	0	-6	5	-8	12	-10	i
O=C(C1CCN(C2CC(=O)N(c3cccc(Cl)c3)C2=O)CC1)N1CCCC1 (stereo unspecified)	-1	-2	-11	.	-1	3	1	i
CCCn1nc(NS(=O)(=O)c2cccc3nonc23)c2cc3cccc(C)c3nc21	6	8	5	-5	-1	15	33	i
CN(c1cccc(Cl)c1)S(=O)(=O)c1cccc(C(=O)NCc2ccncc2)c1	-8	-18	-11	5	.	.	.	.
Cc1ccc2c(c1)c1c(n2CC2COC(C)(C)O2)C(=O)CCC1 (stereo unspecified)	-1	-3	-3	19	-2	-6	-2	i
COc1ccc(C(=O)N2CCCCC2)cc1S(=O)(=O)Nc1cccc(C(=O)O)c1	-3	3	-12	.	-3	-15	4	.
